# DUX4 inh – blocks DUX4-driven transcriptional activation. activity change, negative = inhibition, % (no concentration beside the values). 293T-iDUX4 ZSCAN4-Gaussia luciferase reporter, 24 h; hits give low values. 0.8% of 37,000 active;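 active means -10% or lower and over 25 points stronger than a control reporter; inconclusive means -10% or lower with a smaller gap; inactive means above -10%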;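 further: 0% = median of neutral control wells and -100% = median of positive control wells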
# DUX4 inh difference – second read-out of DUX4 inh, no call of its own (marks repeat the call); Gaussia minus Italica difference, %; measured here: selective DUX4 reporter inhibition;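 worked out from the two reporters; negative = selective loss of the DUX4 reporter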
# DUX4 inh control – further read-out of DUX4 inh, marked with its call; activity change, negative = inhibition, %; measured here: Italica tet-on control reporter;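 0 = neutral control and -100 = positive control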
# An asterisk follows results filed as active; u = inconclusive; x = no result given; & = joins results of further samples. Only part of the results is shown, so the mix of outcomes need not match the whole.
# Start of the data: the first 3 records (preview)
DUX4 inh difference	canonical_smiles	DUX4 inh	DUX4 inh control
2	COc1ccccc1C#Cc1cnc2c(c1)C(=O)N([C@H](C)CO)C[C@@H](C)[C@H](CN(C)C(=O)CN(C)C)O2	2	0.5
0	COc1ccc([C@@H]2CC=CC[C@@H](C)Oc3ccccc3C(=O)N(C)[C@H](C(C)C)C(=O)N2)c(OC)c1 (mixture of isomers)	6	5.5
11	CN(C)CC(=O)Nc1ccc2c(c1)[C@H]1C[C@H](CC(=O)NCc3cc(F)ccc3F)O[C@@H](CO)[C@H]1O2	13	1.6

# The whole of this part, from the start:
DUX4 inh difference	canonical_smiles	DUX4 inh	DUX4 inh control
2	COc1ccccc1C#Cc1cnc2c(c1)C(=O)N([C@H](C)CO)C[C@@H](C)[C@H](CN(C)C(=O)CN(C)C)O2	2	0.5
0	COc1ccc([C@@H]2CC=CC[C@@H](C)Oc3ccccc3C(=O)N(C)[C@H](C(C)C)C(=O)N2)c(OC)c1 (mixture of isomers)	6	5.5
11	CN(C)CC(=O)Nc1ccc2c(c1)[C@H]1C[C@H](CC(=O)NCc3cc(F)ccc3F)O[C@@H](CO)[C@H]1O2	13	1.6
-5	C[C@@H]1CN([C@H](C)CO)C(=O)c2cc(NC(=O)Nc3ccc(C(F)(F)F)cc3)ccc2O[C@@H](C)CCCCO[C@@H]1CN(C)C(=O)Cc1ccccc1	-3	2.2
x	CCCNC(=O)N1[C@H](CO)[C@H](c2ccccc2-c2ccc(OC)cc2)[C@@H]1C#N	u	x
-1	C[C@@H]1CN([C@@H](C)CO)C(=O)Cc2cc(NC(=O)CCCCCC(=O)Nc3ccccc3N)ccc2O[C@H]1CN(C)Cc1ccc(C(F)(F)F)cc1	1	2.0
-8	CO[C@@H]1CN(C)C(=O)c2cc(NC(=O)Nc3ccccc3F)ccc2OC[C@@H](C)N(C(=O)c2cnccn2)C[C@H]1C	4	11
-15&-9	N#Cc1cccc(-c2ccc(C3[C@@H]4CN(C(=O)c5cccnc5)C[C@H]3N4)cc2)c1 (stereo partly specified)	-4&-1	12&8.7
x	N#C[C@H]1[C@H](c2ccccc2C2=CCCCC2)[C@@H](CO)N1C(=O)NC1CCCC1	u	x
1	CO[C@H]1CC[C@H]2CCN(C)C(=O)[C@H](C)N(C)C(=O)c3cc(C#N)ccc3OC[C@H]1O2	-2	-2.8
5	Cc1noc(C)c1S(=O)(=O)N(C)C[C@@H]1OCc2cn(nn2)CCCC(=O)N([C@H](C)CO)C[C@H]1C	6	0.9
11	CN1CCN(C(=O)C[C@H]2CC[C@@H]3[C@H](COC[C@@H](O)CN3C(=O)C3CCOCC3)O2)CC1	13	1.7
-3	C[C@@H]1CN([C@H](C)CO)C(=O)c2cccc(NC(=O)c3ccc(-c4nccs4)cc3)c2O[C@H]1CN(C)Cc1ccc(Cl)c(Cl)c1	3	5.6
-8	CCC(=O)N1CC2(C1)CN(Cc1ccccc1Cl)[C@H](CO)c1c2c2ccc(OC)cc2n1C	-10	-2.3
1	CCCNC(=O)N1C[C@@H](O)COC[C@@H]2O[C@H](CC(=O)N3CCN(C)CC3)CC[C@H]21	2	0.8
1	CN(C)c1ccc2c(c1)[C@@H]1C[C@@H](CC(=O)NCCc3ccccc3)O[C@H](CO)[C@@H]1O2	-1	-1.7
0	CCC(=O)N1CCC2(CC1)CN(C(=O)Nc1ccccc1F)[C@@H](CO)c1c2c2ccc(OC)cc2n1C	-6	-6.4
-4	O=C(c1cccnc1)N1CC[C@@H]2[C@@H](CO)Nc3ccc(C#Cc4cccnc4)cc3[C@@H]21	0	4.4
5	O=C(C[C@H]1C[C@H]2c3cc(NC(=O)C4CCOCC4)ccc3O[C@H]2[C@@H](CO)O1)NCCN1CCCCC1	9	3.9
4	CCN1[C@@H]2Cn3c(ccc(-c4ccc(OC)cc4)c3=O)[C@H]1[C@@H](C(=O)NCC1CC1)[C@@H]2CO	2	-2.3
6	C[C@H](NC(=O)C[C@H]1C[C@@H]2c3cc(NS(=O)(=O)c4ccc(F)cc4)ccc3O[C@@H]2[C@H](CO)O1)c1ccccc1	9	2.8
3	COCC(=O)Nc1ccc2c(c1)[C@H]1C[C@H](CC(=O)N3CCOCC3)O[C@@H](CO)[C@H]1O2	5	1.9
0	O=C([C@H]1[C@H](CO)[C@H]2Cn3c(ccc(C4=CCCCC4)c3=O)[C@H]2N1Cc1nccs1)N1CCOCC1	6	6.0
6	CN1c2ccc(-c3ccccc3)cc2[C@@H]2[C@@H](CCN2C(=O)Nc2ccccc2F)[C@@H]1CO	6	0.2
2	Cc1noc(C)c1NC(=O)N(C)C[C@H]1OCCCC[C@@H](C)Oc2ccc(NS(=O)(=O)c3cn(C)cn3)cc2C(=O)N([C@@H](C)CO)C[C@@H]1C	3	0.7
11	CCC(=O)N1CCC2(CC1)CN(S(=O)(=O)c1ccccc1)[C@@H](CO)c1[nH]c3cc(OC)ccc3c12	10	-1.4
-2	C[C@@H]1COCn2nncc2CCCC(=O)N1	0	1.5
-3	COCCNC(=O)C[C@@H]1CC[C@H]2[C@H](COc3ccc(NC(=O)c4cc(C)on4)cc3C(=O)N2C)O1	0	2.3
-10	COc1ccc2c3c(n(C)c2c1)[C@H](CO)N(CC1CC1)CC31CCN(C(=O)c2cccnc2)CC1	-7	3.2
-6	CCCC#Cc1ccc([C@@H]2[C@@H](CO)N3CCCCN(Cc4cccnc4)C[C@H]23)cc1	10	16
3	CN1c2ccc(Br)cc2[C@H]2[C@H](CCN2C(=O)Nc2ccc(F)cc2)[C@H]1CO	10	6.5
0	O=C1N[C@@H](Cc2ccccc2)COCc2cn(nn2)CC[C@@H]1Cc1cccc(Cl)c1	3	3.0
3	CN1C(=O)c2cc(NC(=O)Nc3ccccc3Cl)ccc2OC[C@@H]2O[C@@H](CC(=O)NCCCN3CCOCC3)CC[C@H]21	-1	-3.6
x	O=S(=O)(c1ccccc1)N1CCCCN2[C@@H](CO)[C@@H](c3ccc(C#Cc4cccnc4)cc3)[C@@H]2C1	u	x
x	COc1cccc(-c2ccc3n(c2=O)C[C@H]2[C@H](CO)[C@@H](C(=O)N(C)C)N(C(=O)C4CCC4)[C@@H]32)c1	u	x
7	COc1ccc2c3c(n(C)c2c1)[C@@H](CO)N(C(=O)Nc1ccccc1F)CC31CCN(C)CC1	4	-3.2
5	COc1ccc(S(=O)(=O)N(C)C[C@@H]2Oc3c(cccc3N(C)C)C(=O)N([C@H](C)CO)C[C@H]2C)cc1	0	-4.8
x	COc1ccc(S(=O)(=O)N(C)C[C@H]2OCc3ccccc3-c3c(n(C)c4ccccc34)C(=O)N([C@H](C)CO)C[C@H]2C)cc1	u	x
2	CCCNC(=O)[C@H]1[C@H](CO)[C@H]2Cn3c(ccc(-c4cccc(OC)c4)c3=O)[C@H]2N1C	-2	-4.5
-1	COC(=O)[C@@H]1[C@@H](CO)[C@@H]2Cn3c(ccc(C4=CCCCC4)c3=O)[C@@H]2N1C(=O)c1ccccc1F	0	1.0
-5	O=C(C[C@H]1CC[C@@H]2[C@H](COC[C@H](O)CN2S(=O)(=O)c2cccc(Cl)c2)O1)N1CCCCC1	0	4.1
-3	C[C@H](CO)N1C[C@H](C)[C@@H](CN(C)CC2CCCCC2)Oc2ccc(N(C)C)cc2C1=O	-4	-0.5
7	O=C(C[C@@H]1C[C@@H]2c3cc(NC(=O)C4CCC4)ccc3O[C@@H]2[C@@H](CO)O1)NCc1ccccc1F	7	0.0
-2	Cn1cnc(S(=O)(=O)N2C[C@@H](O)COC[C@H]3O[C@H](CC(=O)NCc4cc(F)cc(F)c4)CC[C@@H]32)c1	9	11
-5	CN1CCN(C(=O)C[C@@H]2C[C@@H]3c4cc(NC(=O)Nc5ccc(C(F)(F)F)cc5)ccc4O[C@@H]3[C@H](CO)O2)CC1	1	5.1
0	CN1C(=O)c2cc(NC(=O)Nc3ccccc3F)ccc2OC[C@H]2O[C@@H](CC(=O)NCCc3ccncc3)CC[C@@H]21	0	0.4
7	COc1ccc(S(=O)(=O)Nc2ccc3c(c2)C(=O)N([C@@H](C)CO)C[C@@H](C)[C@H](CN(C)S(=O)(=O)c2cn(C)cn2)OCCCC[C@@H](C)O3)cc1	6	-1.2
0	CCC(=O)N1[C@H](CO)[C@@H](c2ccccc2)[C@H]1CNC(=O)CN1CCOCC1	2	1.4
1	Cc1noc(C)c1S(=O)(=O)N(C)C[C@@H]1Oc2c(NC(=O)c3ccc(-c4nccs4)cc3)cccc2C(=O)N([C@@H](C)CO)C[C@H]1C	1	0.5
7	C[C@@H]1CN([C@H](C)CO)C(=O)c2c(c3ccccc3n2C)-c2ccccc2CO[C@H]1CN(C)Cc1ccc(O)cc1	8	1.3

# Continued.
DUX4 inh difference	canonical_smiles	DUX4 inh	DUX4 inh control
-2	CCCNC(=O)N1CC(=O)N2[C@H](CO)[C@H](c3ccc(C#CCC4CCCC4)cc3)[C@H]2C1	-5	-3.7
x	C[C@H]1CN([C@@H](C)CO)C(=O)c2c(c3ccccc3n2C)-c2ccccc2CO[C@H]1CN(C)C(=O)c1ccc(F)cc1	u	x
2	CN(C)CC(=O)Nc1ccc2c(c1)[C@H]1C[C@@H](CC(=O)NCC3CC3)O[C@@H](CO)[C@H]1O2	5	2.9
x	COc1cccc(-c2ccc3c(c2)[C@H]2[C@H](CCN2Cc2ccccc2OC)[C@H](CO)N3)c1	u	x
16	CC(=O)N1CC[C@@H]2[C@H]1c1cc(-c3ccccc3)ccc1N(C)[C@H]2CO	20	4.3
1	CO[C@H]1CN(C)C(=O)c2ccc(NS(=O)(=O)c3ccc(C)cc3)cc2OC[C@H](C)N(Cc2nccs2)C[C@H]1C	-1	-2.1
-3	Cc1nn(C)cc1NC(=O)C[C@@H]1CC[C@H]2[C@H](COc3ccc(NC(=O)Nc4cccc(Cl)c4)cc3C(=O)N2C)O1	-1	1.9
1	C[C@H]1CN([C@@H](C)CO)C(=O)CCCn2cc(nn2)CO[C@H]1CN(C)C(=O)Nc1ccnc(N2CCOCC2)c1	3	2.3
-8	COc1cccc(S(=O)(=O)N2C[C@@H](O)COC[C@@H]3O[C@@H](CC(=O)NCCCN4CCOCC4)CC[C@H]32)c1	1	9.6
x	COCC(=O)N1CCCCN2[C@H](CO)[C@@H](c3ccc(C#Cc4ccccc4)cc3)[C@@H]2C1	u	x
-3	COC(=O)[C@H]1[C@H](CO)[C@H]2Cn3c(ccc(-c4ccccc4F)c3=O)[C@H]2N1CC1CCOCC1	0	3.1
3	CN(C)CC(=O)N1[C@@H](C#N)[C@@H](c2ccc(C#CC3CC3)cc2)[C@@H]1CO	-1	-4.1
2	O=C(CC1CC1)NC[C@H]1N[C@H](CO)[C@@H]1c1ccc(-c2ccc(F)cc2)cc1	4	1.8
3	CN1c2ccc(-c3cccc(C#N)c3)cc2[C@@H]2[C@@H](CCN2C(=O)CC2CC2)[C@@H]1CO	1	-2.7
5	COc1ccc(NC(=O)N(C)C[C@@H]2OCCCC[C@H](C)Oc3ccc(NC(=O)c4ccncc4)cc3C(=O)N([C@H](C)CO)C[C@H]2C)cc1	3	-1.6
5	CO[C@H](C(=O)N(C)C[C@@H]1OCc2ccccc2-c2ccccc2C(=O)N([C@@H](C)CO)C[C@@H]1C)c1ccccc1	-6	-11
5	CN1CCCCN2[C@@H](CO)[C@@H](c3ccc(C#CC4(O)CCCC4)cc3)[C@@H]2C1	12	7.2
-5	COc1ccccc1CNC(=O)C[C@@H]1CC[C@@H]2[C@@H](COc3ccc(NC(C)=O)cc3C(=O)N2C)O1	-2	3.9
-2	C[C@@H]1CN([C@@H](C)CO)C(=O)CCCn2cc(nn2)CO[C@H]1CN(C)C(=O)NC1CCCCC1	1	3.2
5	Cn1cnc(S(=O)(=O)N2C[C@@H](O)COC[C@@H]3O[C@H](CC(=O)NCc4cccc(F)c4)CC[C@H]32)c1	16	11
6	CNC(=O)C[C@H]1CC[C@H]2[C@@H](COC[C@@H](O)CN2Cc2ccncc2)O1	3	-3.2
13	CN1CCCCN2[C@H](CO)[C@@H](c3ccc(-c4ccc(F)cc4)cc3)[C@H]2C1	7	-5.8
3	C[C@H]1CN([C@@H](C)CO)C(=O)c2cc(NC(=O)NC3CCCCC3)ccc2O[C@H]1CN(C)C(=O)Nc1ccc2c(c1)OCO2	-1	-3.2
2	COc1ccc(NC(=O)N(C)C[C@@H]2OCc3ccccc3-c3ccccc3C(=O)N([C@@H](C)CO)C[C@@H]2C)cc1	3	0.9
x	CN(C)C(=O)[C@H]1[C@H](CO)[C@H]2Cn3c(ccc(C4=CCCC4)c3=O)[C@H]2N1Cc1ccc2c(c1)OCO2	u	x
7	C[C@@H]1CN([C@H](C)CO)C(=O)c2cc(N(C)C)ccc2O[C@@H](C)CCCCO[C@@H]1CN(C)Cc1ccc2c(c1)OCO2	3	-4.1
1	C/C=C/c1ccc([C@H]2[C@@H](CNC(C)C)N(Cc3cccnc3)[C@H]2CO)cc1	1	0.1

# 7 compounds already listed, sorted by the number in DUX4 inh control, low to high.
DUX4 inh difference	canonical_smiles	DUX4 inh	DUX4 inh control
13	CN1CCCCN2[C@H](CO)[C@@H](c3ccc(-c4ccc(F)cc4)cc3)[C@H]2C1	7	-5.8
7	C[C@@H]1CN([C@H](C)CO)C(=O)c2cc(N(C)C)ccc2O[C@@H](C)CCCCO[C@@H]1CN(C)Cc1ccc2c(c1)OCO2	3	-4.1
1	C/C=C/c1ccc([C@H]2[C@@H](CNC(C)C)N(Cc3cccnc3)[C@H]2CO)cc1	1	0.1
2	O=C(CC1CC1)NC[C@H]1N[C@H](CO)[C@@H]1c1ccc(-c2ccc(F)cc2)cc1	4	1.8
1	C[C@H]1CN([C@@H](C)CO)C(=O)CCCn2cc(nn2)CO[C@H]1CN(C)C(=O)Nc1ccnc(N2CCOCC2)c1	3	2.3
-3	COC(=O)[C@H]1[C@H](CO)[C@H]2Cn3c(ccc(-c4ccccc4F)c3=O)[C@H]2N1CC1CCOCC1	0	3.1
5	CN1CCCCN2[C@@H](CO)[C@@H](c3ccc(C#CC4(O)CCCC4)cc3)[C@@H]2C1	12	7.2
